CBX7 inh = CBX7 inhibition, primary AlphaScreen. actives 1.1% (n = 66,000). normalised signal (fraction of DMSO) (concentration not given with the values). AlphaScreen His6-CBX7 / biotin-H3K27me3 peptide binding; active compounds read low; in the data active = normalised signal below about 0.5;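 also: 100 nL library stock added to about 20 µL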
Target sequence (O95931 whole entry, looked up): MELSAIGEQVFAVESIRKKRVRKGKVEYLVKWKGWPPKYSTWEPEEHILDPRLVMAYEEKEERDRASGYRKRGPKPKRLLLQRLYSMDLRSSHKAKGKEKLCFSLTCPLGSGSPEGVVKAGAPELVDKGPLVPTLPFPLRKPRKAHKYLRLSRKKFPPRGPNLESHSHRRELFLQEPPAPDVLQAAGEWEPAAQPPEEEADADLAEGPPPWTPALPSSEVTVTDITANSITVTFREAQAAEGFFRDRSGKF
CBX7 inh z-score = further read-out of CBX7 inh, marked with its call; z-score; measured here: z-score of CBX7 signal; some inactives read as strong as hits; reference of the scale not given here;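 same signal on another scale; lower means less binding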
Numbers without * were called inactive; & = joins results of further samples. Not all compounds are listed, so the mix of outcomes need not match the whole.

SMILES | CBX7 inh | CBX7 inh z-score
C=CCN(c1ccccc1)C(C(=O)NC1CCCC1)c1ccc(C)cc1 (configuration not stated) | 0.87 | -1.3
O=C(Nc1cccnc1Cl)c1cc(-c2ccc3c(c2)OCO3)on1 | 0.99 | -0.24
Cc1ccc(-c2[nH]c(-c3ccccc3)nc2SCC(=O)Nc2ccc3c(c2)OCCO3)cc1 | 0.83 | -8.2
Cc1ccc(-c2nc3ccc(Br)cn3c2Nc2ccccc2C)s1 | 0.77 | -2.4
Cc1ccc(S(=O)(=O)Nc2ccccc2CNC(C)(C)C)cc1 | 1 | 1
COc1ccc(NC(=O)c2ccc(Cl)c(S(=O)(=O)N3CCCCCC3)c2)cc1 | 0.98 | -0.79
CN1CCN(C(=O)c2cc(-c3ccc4c(c3)OCO4)on2)CC1 | 0.99 | -0.13
CC1CCCN(CCCNS(=O)(=O)c2ccc3c(c2)CCN3C(=O)C2CCC2)C1 (configuration not stated) | 1.2 | 5.5
CC(C(=O)Nc1ccc(F)cc1)N1C(=O)c2ccccc2C1=O (configuration not stated) | 1.2 | 2.3
COc1ccccc1-n1c(/C=C/c2c(C)n(C)c3ccccc23)nc2ccccc2c1=O | 0.84 | -1.7
Cc1cc(C)c(S(=O)(=O)Nc2cccc(-c3cn4cccc(C)c4n3)c2)cc1C | 1 | 1.4
COc1cccc(NC(=O)CCc2c(C)nc3cc(-c4ccc(OC)cc4OC)nn3c2C)c1 | 0.97 | -0.39
CCCN1CCN(CCCNC(=O)CN2N=C(c3ccccc3)CCC2=O)CC1 | 1.1 | 1.1
O=C(NCCCn1ccnc1)c1cc(-c2ccc(F)cc2)on1 | 1 | 0.3
COCCCNC(=O)C1CCN(Cc2nc(-c3ccc(OC)c(OC)c3)oc2C)CC1 | 1 | 0.2
O=C(Nc1ccc2oc(-c3ccc(Cl)cc3Cl)nc2c1)c1ccccc1F | 1.1 | 1.4
O=C(NCCN1CCOCC1)c1cc(-c2ccc(Cl)c(Cl)c2)on1 | 0.87 | -1.4
COC(CN1C(=O)Cn2cccc2C1C(=O)NC1CCCCC1)OC (configuration not stated) | 0.96 | -0.094
COc1ccc(CC(=O)Nc2c(-c3ccccc3)nc3cc(C)ccn23)cc1OC | 1.1 | 0.12
Cc1cc(N2CCOCC2)nc2ccc(NC(=O)CCC(=O)Nc3ccccc3F)cc12 | 0.97 | -0.73
O=C(Nc1ccc(Br)cc1)c1cc(-c2ccc(O)cc2)on1 | 1 | 0.44
Cc1ccc(-c2noc(-c3ccc(C)c(C)c3)n2)cc1 | 1.1 | 0.96
O=C1CC(NCCc2ccc(Cl)cc2)C(=O)N1c1ccccc1 (configuration not stated) | 1 | 0.025
O=C(Nc1cc(Cl)ccc1Cl)c1cc(-c2ccc(O)cc2)on1 | 1 | 1.1
COc1ccc(Cl)cc1NC(=O)c1sc2ncn(CC(=O)N3CCC(C)CC3)c(=O)c2c1C | 0.79 | -2.2
CC(C)C[C@@H](C(=O)Nc1ccc(F)cc1)N1Cc2ccccc2C1=O | 0.97 | -0.75
CCN1CCN(C(=O)c2n[nH]c(=O)c3ccccc23)CC1 | 1.1 | 0.57
CCCCC(=O)NCCc1cc2c(C)ccc(C)c2[nH]c1=O | 1.1 | 0.25
COc1ccc(CCNC(=O)c2nc3ccccc3[nH]2)cc1 | 0.98 | -1.1
Cc1ccc(N2C(=O)CC(N3CCN(Cc4ccc(Cl)cc4)CC3)C2=O)cc1Cl (configuration not stated) | 1 | 1.9
O=C(O)c1ccc2c(c1)C(=O)N(c1nccs1)C2=O | 1.2 | 2.4
CCC(C)NC(=O)C1CCN(C(=O)c2cc3sccc3n2Cc2ccc(F)cc2)CC1 (configuration not stated) | 1 | 1.6
COCCNC(=O)CN1C(=O)CC(C)(C)S(=O)(=O)c2ccccc21 | 0.96 | -1
Cc1ccccc1OCc1nc(C#N)c(N2CCN(c3ccccc3)CC2)o1 | 0.42* | -7.3*
CN(C)c1ccc(-c2nc3cc(NC(=O)c4cccc5ccccc45)ccc3o2)cc1 | 1.1 | 2.7
CC1CCN(c2c(NCc3ccc(C(=O)N4CC(C)CC(C)C4)cc3)c(=O)c2=O)CC1 (configuration not stated) | 1 | 0.26
Cc1n[nH]c(C)c1CCCCCOc1ccccc1Br | 0.92 | -1.6
CCc1ccc2c(c1)c(=O)c(S(=O)(=O)c1ccccc1)cn2CC(=O)Nc1ccc2c(c1)OCO2 | 0.87 | -4.3
O=C(C1c2ccccc2C(=O)N2CCc3ccccc3C12)N1CCN(c2ccccc2F)CC1 (configuration not stated) | 1 | 0.66
Cc1cc(C)c2c(NC(=O)Nc3ccc(Cl)c(Cl)c3)n[nH]c2n1 | 0.96&1&1 | -0.99&0.51&0.14
Cc1nn(C)c(C)c1S(=O)(=O)N(CC(=O)Nc1ccc(F)c(Cl)c1)c1ccc(C(C)C)cc1 | 1.2 | 1.1
CCOc1ccc(C2Nc3ccc(C(=O)c4ccccc4)cc3NC3=C2C(=O)CCC3)cc1 (configuration not stated) | 0.92 | -4.2
Cc1nc(Oc2ccc(Cl)cc2)c(C(=O)NCc2ccc(Cl)cc2)c(C)c1Cl | 1.1 | 1.3
O=C(Cc1c(C(=O)O)[nH]c2ccccc12)Nc1ccc(F)cc1Cl | 1.1 | 2.8
Cc1cc(C)cc(NC(=O)CCc2c(C)nc3c(-c4ccccc4)c(C)nn3c2C)c1 | 1.1 | 1.5
COc1ccc(OC)c(NC(=O)c2ccc3c(c2)C(=O)N(c2cc(C)on2)C3=O)c1 | 1 | -0.038
CCOc1ccc(C(=O)Nc2ccc3oc(-c4ccc(F)cc4)nc3c2)cc1 | 1.1 | 0.58
O=C1C2C(C(=O)N1c1cc(Cl)ccn1)C1C=CC2C12CC2 (configuration not stated) | 1.1 | 1.2
O=C1CC(c2c(F)cccc2Cl)c2cc(Br)c3ccccc3c2N1 (configuration not stated) | 1 | 0.26
COc1cccc(CN2C(=O)CN(C3CCC(C)CC3)C(=O)C2c2ccc(OC)c(OC)c2)c1 (configuration not stated) | 0.82 | -0.51
COC(=O)c1cccc(NC(=O)c2ccccc2Cl)c1 | 1 | 0.63
Cn1c(NC(=O)COc2ccc(Cl)cc2)nc2ccccc21 | 0.88&1 | -1.2&0.0065
CCCCN(CCCC)C(=O)c1c[nH]c2ccc(S(=O)(=O)Nc3cccc(OC)c3)cc2c1=O | 0.73 | -1.8
Cc1cc(NC(=O)CN2CCN(Cc3ccccc3)CC2)no1 | 1 | -0.035
CC(=O)Nc1ccc(Oc2ccc3c(c2)C(=O)N(c2ccc(C)cc2C)C3=O)cc1 | 0.92 | -1.1
Clc1ccc(CSc2nc3ccccc3o2)cc1Cl | 1.5 | 5.6
CCOC(=O)N1CCN(c2c(NCc3ccc(OC)cc3)c(=O)c2=O)CC1 | 1 | 1.6
CCc1cccc(N(CC)C(=O)Cn2nc(Cc3ccncc3)c3ccccc3c2=O)c1 | 0.97 | -1.3
Cc1cccc(C2(c3cccc(C)c3)CC2C(=O)Nc2ccccc2F)c1 (configuration not stated) | 0.9 | -1.2
CCc1ccc(NC(=O)N(CCC(C)C)C2CCN(C(=O)O)CC2)cc1 | 1.1 | 1.4

(more compounds)
SMILES | CBX7 inh | CBX7 inh z-score
Cc1ccccc1-c1nc(CS(=O)(=O)CC(=O)N2CCc3ccccc3C2)c(C)o1 | 0.96 | -1.1
O=C(Nc1nnc(-c2ccc(Cl)cc2Cl)s1)c1cccs1 | 1.1 | 0.35
CCc1ccc(C2Nc3ccccc3NC3=C2C(=O)CC(c2ccccc2)C3)cc1 (configuration not stated) | 0.77 | -1.6
COC(=O)c1c[nH]n2c(=O)c(Cc3ccccc3C)c(C)nc12 | 1.1 | 0.13
COc1ccc(Cl)cc1-c1nc(-c2cccnc2)no1 | 0.91 | -0.94
COc1cc(C)c(-c2n[nH]c(C)c2Oc2ccccc2)c(O)c1 | 0.86 | -0.64
O=c1[nH]c2ccc(S(=O)(=O)Nc3ccc(F)c(F)c3)cc2[nH]c1=O | 1.1 | 2.8
CCOc1ccc(CCNC(=O)c2ccc3nc(N4CCC(C)CC4)sc3c2)cc1 | 1 | 0.11
O=C(CN1C(=O)CSc2ncccc21)NCCCN1CCCC1 | 1 | 0.54
Cc1ccc(S(=O)(=O)Nc2ccccc2C(=O)Nc2nc(-c3ccc(C)c(C)c3)cs2)cc1 | 0.59 | -8.8
CCN1CCN(c2cc(C)c3cc(NC(=O)c4ccccc4Cl)ccc3n2)CC1 | 0.97 | -0.23
O=C(CCn1c(=O)[nH]c2ccccc2c1=O)N1CCN(c2cccc(C(F)(F)F)c2)CC1 | 0.93 | -0.19
Cc1ccccc1-c1nc(C(=O)NC2CC2)c(C)o1 | 1.1 | 0.86
COc1ccc(-n2c(CCC(=O)O)ccc2-c2cccs2)cc1 | 0.62 | -6.5
CCn1c(C(=O)N2CCC(C(=O)N3CCCCC3)CC2)cc2sccc21 | 1 | -0.12
Fc1cccc(Br)c1C1CC(c2cccnc2)Nc2ncnn21 (configuration not stated) | 1.2 | 1
CCC1Oc2ccccc2N(CC(=O)NCCN2CCN(c3ccccc3F)CC2)C1=O (configuration not stated) | 0.97 | -0.77
COc1ccc(NC(=O)CSc2nnc(Cc3cc(=O)[nH]c(=O)[nH]3)n2-c2cccc(C)c2)cc1 | 1 | 0.63
CC(NC(=O)CCn1nc(-c2ccc(Cl)cc2)ccc1=O)c1ccccc1 (configuration not stated) | 1 | 0.08
CCOC(=O)N1CCC(Nc2c(NC3CCN(Cc4ccccc4)CC3)c(=O)c2=O)CC1 | 0.8 | -2.4
Cc1ccc2c(c1)-c1c(cnn1CC(=O)NCc1ccc3c(c1)OCO3)CO2 | 1.1 | 2.4
CCN(CC)c1ccc2cc(-c3nnc(-c4ccccc4)o3)c(=O)oc2c1 | 0.82 | -2
CCOC(=O)c1cnc2c(C)c(Cl)ccc2c1Nc1ccc(OC)cc1OC | 0.87 | -2.9
Cc1ccccc1Nc1nc(-c2ccccc2)c2cc(Br)ccc2n1 | 1.8 | 14
CN1CCN(CCCNC(=O)c2cc(-c3cccnc3)nc3ccccc23)CC1 | 0.99 | -0.12
N#Cc1nc(-c2ccccc2)oc1NCC1CCCO1 (configuration not stated) | 1 | 0.99
CCN(CC)C(=O)Cn1cnc2sc(C(=O)Nc3cccc(Cl)c3)c(C)c2c1=O | 0.94 | -1.7
Cc1c(C(=O)N2CCN(c3ccccn3)CC2)oc2ccc(S(=O)(=O)N3CC(C)CC(C)C3)cc12 (configuration not stated) | 0.82 | -7
CCCN1CCN(CCCNC(=O)CCc2nc(-c3ccc(C)cc3)no2)CC1 | 1.4 | 5.6
COc1ccc(Cn2c(-c3ccc(OC)cc3)nc3ccccc32)cc1 | 0.93 | -2.8
CNS(=O)(=O)c1cc(-c2nnc(OC)c3ccccc23)ccc1C | 0.82 | -2.1
Cc1ccc(NC(=O)c2oc3ccc(S(=O)(=O)N4CCC5(CC4)OCCO5)cc3c2C)cc1C | 1 | -0.051
COc1ccc2c(c1)CCc1c(C(=O)Nc3cccnc3)noc1-2 | 0.82 | -3.8
COc1cc2[nH]c(=O)n(CCCCCC(=O)N3CCC(C(N)=O)CC3)c(=O)c2cc1OC | 1.1 | 3.2
CCOC(=O)N1CCN(c2cc(=O)n(-c3ccc(OC)cc3)c(=O)[nH]2)CC1 | 1.1 | 0.76
COc1cccc(CN2CCN(Cc3cccnc3)CC2)c1 | 1 | 0.68
COc1ccc(N(CC(=O)Nc2cccc(C)c2)S(=O)(=O)c2c(C)nn(C)c2C)cc1 | 1 | 0.28
Cc1nnc(NC(=O)CSc2nnc(Cc3cc(=O)[nH]c(=O)[nH]3)n2-c2ccccc2)s1 | 0.87 | -4.6
O=C(NC1CC1)c1cc(-c2ccccn2)nc2ccc(S(=O)(=O)N3CCOCC3)cc12 | 1.1 | 3.3
O=S(=O)(NCC(c1ccccc1)N1CCNCC1)c1ccc(Cl)cc1 (configuration not stated) | 1 | 1.1
CCOc1ccccc1CNC(=O)c1ccc2c(c1)NC(=O)CN2C | 0.98 | -0.02
CCCCN(CC)S(=O)(=O)c1ccc(C(=O)Nc2nnc(COC)o2)cc1 | 0.062* | -1.6*
Cc1cc(C)cc(NC(=O)CSc2nccn2-c2ccc(F)cc2)c1 | 0.51 | -0.65
Cc1ccc(C)c(CN2C(=O)c3ccccc3S(=O)(=O)c3ccc(C(=O)NC4CC4)cc32)c1 | 1.1 | 1.6
Cc1cccc2c1-c1sc(C(=O)Nc3ccc(S(N)(=O)=O)cc3)cc1CO2 | 1.1 | 1.7
